rRNA inh HTS: reduced GFP signal of wild-type E. coli, primary screen, bacterial rRNA inhibitor project, GFP/RFP fluorescence, OD600, single point. E. coli WT GFP vs humanized-ribosome RFP mutants, 24 h; active compounds read low; DMSO median 0, no signal -100. GFP signal change (wild-type ribosome), % (test concentration not listed). hit rate 1.6% among 350,000. AID 720706, 2013;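 active = significant combined selectivity score with lowered wild-type GFP, culture density cut under 30%, mutant RFP and density less affected; inactive = any of these conditions unmet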; also: one replicate is shown; some compounds called inactive have numbers as strong as hits
FGF22 binding: binders of human FGF22 protein, primary screen, FGF22 synaptogenesis inhibitor project, biophysical, thermal shift, single point | hit rate 1.5% among 340,000 | calls only at 9.99 µM | recombinant FGF22 thermal shift, SYPRO orange fluorescence; percent of sucrose octasulfate shift, DMSO zero | AID 651658, 2012 | Fibroblast growth factor 22 (Homo sapiens), Q9HCT0;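 active = melting point raised past a set limit in the mean and every replicate; three in four hits are not shown here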
Target sequence (Q9HCT0 whole entry, looked up): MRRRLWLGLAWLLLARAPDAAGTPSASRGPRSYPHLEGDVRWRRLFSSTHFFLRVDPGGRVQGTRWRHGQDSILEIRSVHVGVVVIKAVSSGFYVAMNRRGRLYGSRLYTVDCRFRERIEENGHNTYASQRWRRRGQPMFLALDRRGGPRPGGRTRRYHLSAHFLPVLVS
AF4-AF9 inh: inhibitors of AF4 peptide binding to AF9, primary screen, biochemical, AlphaScreen, biotin-AF4 peptide, FLAG-AF9, single point. inhibition, % at 10 µM. hit rate 0.47% among 350,000. AID 651704, 2012;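 active = every replicate reaching a set inhibition limit, whatever the replicate mean, cut at about 25% in these data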;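 also: 0% = plate neutral control median and 100% = total signal loss; the record names both 10 and 1 µM as test concentration; the first replicate is given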
Target sequence (P42568 whole entry, looked up): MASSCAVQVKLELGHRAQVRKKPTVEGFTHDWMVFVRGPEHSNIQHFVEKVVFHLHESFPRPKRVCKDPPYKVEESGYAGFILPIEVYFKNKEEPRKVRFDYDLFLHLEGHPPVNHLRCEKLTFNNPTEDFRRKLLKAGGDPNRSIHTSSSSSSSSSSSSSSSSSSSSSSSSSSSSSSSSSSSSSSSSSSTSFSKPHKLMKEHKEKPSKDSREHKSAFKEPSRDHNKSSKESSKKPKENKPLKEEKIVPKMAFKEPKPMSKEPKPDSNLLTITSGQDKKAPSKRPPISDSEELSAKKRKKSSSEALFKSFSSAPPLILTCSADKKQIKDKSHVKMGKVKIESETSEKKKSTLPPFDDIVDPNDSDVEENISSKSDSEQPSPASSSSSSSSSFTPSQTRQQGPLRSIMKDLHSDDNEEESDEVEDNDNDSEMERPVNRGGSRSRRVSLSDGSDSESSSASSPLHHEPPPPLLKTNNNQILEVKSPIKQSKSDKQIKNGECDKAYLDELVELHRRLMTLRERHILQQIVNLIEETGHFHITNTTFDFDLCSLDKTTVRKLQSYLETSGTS
rRNA inh HTS OD600: recorded beside rRNA inh HTS, whose call it bears; OD600 change, %; measured here: OD600 growth;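 optical density of the mix in the first replicate; 0 = DMSO median and -100 = no signal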
rRNA inh HTS RFP: further read-out of rRNA inh HTS, marked with its call; RFP signal change, %; measured here: RFP humanized mutant strains;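 first replicate; 0 = DMSO median and -100 = no signal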
* = called active by the depositor; i = inactive; x = no result given; + = active, no number; & = joins results of further samples.

nr	compound	FGF22 binding	rRNA inh HTS RFP	rRNA inh HTS	rRNA inh HTS OD600	AF4-AF9 inh
1	CCCNC(=O)Nc1ccc2c(c1)C(=O)N(C)C[C@@H](OC)[C@H](C)CN(C(=O)C1CC1)[C@H](C)CO2	i	0.6	1	4	-1.6
2	C[C@@H]1CN([C@H](C)CO)C(=O)c2cccc(NC(=O)C3CCOCC3)c2O[C@H]1CN(C)C(=O)Nc1ccccc1	i	-0.3	-1	4	0.1
3	C[C@@H]1CN([C@H](C)CO)C(=O)Cc2cc(NC(=O)C3CCCCC3)ccc2O[C@@H]1CN(C)Cc1ccc(C(=O)O)cc1	i	-1.3	3	8	-2.0
4	CNC(=O)C1(C)Cc2c(-c3ccc4c(c3)OCO4)ccnc2O1 (centres undefined)	i	-1.5	5	11	-0.3
5	C[C@@H]1CN([C@H](C)CO)C(=O)c2cc(NC(=O)Nc3ccccc3)ccc2O[C@H]1CN(C)Cc1ccc(Oc2ccccc2)cc1	i	1.6	3	-4	1.3
6	CCCN1[C@@H]2c3ccc(-c4ccccc4OC)c(=O)n3C[C@@H]2[C@@H](CO)[C@@H]1C(=O)OC	i	-0.7	4	6	-0.7
7	CN1CCN(C(=O)C[C@@H]2C[C@@H]3c4cc(NC(=O)C5CCC5)ccc4O[C@@H]3[C@H](CO)O2)CC1	i	-1.0	3	1	-2.7
8	CC(C)(O)C#Cc1ccc(N2C(c3ccsc3)=Cc3ccc(F)cc3C2c2c[nH]c3ccccc23)cc1 (centres undefined)	i	-19	-61	-79	-5.4
9	CCC(=O)Nc1ccc2c(c1)C(=O)N(C)C[C@H](OC)[C@@H](C)CN(C(=O)CC)[C@@H](C)CO2	+	-3.3	1	9	0.6
10	C[C@@H]1CN([C@@H](C)CO)C(=O)c2cc(NS(=O)(=O)c3ccc(F)cc3)ccc2O[C@@H]1CN(C)C(=O)Nc1ccccc1	i	2.0	-5	-8	-0.5
11	COc1ccc(CN(C)C[C@@H]2OCCCC[C@H](C)Oc3ccc(NS(=O)(=O)c4c(C)noc4C)cc3C(=O)N([C@H](C)CO)C[C@H]2C)cc1	i	2.9	5	5	3.7
12	CN(C)C(=O)c1cccc(-c2ccc([C@@H]3[C@@H](CO)N4C(=O)CN(C(=O)C5CCCC5)C[C@@H]34)cc2)c1	i	2.6	5	10	-1.1
13	CN1c2ccc(-c3cccc(F)c3)cc2[C@@H]2[C@@H](CCN2C(=O)c2ccccc2F)[C@@H]1CO	i	10	-8	-27	-4.9
14	CC1CCN(c2ccc3c(c2)S(=O)(=O)c2cc(C(=O)O)ccc2C3=O)CC1	i	-12	-36	-47	-0.7
15	COc1ccc2c3c([nH]c2c1)[C@H](CO)N(C(=O)C1CCOCC1)CC31CN(Cc2nccs2)C1	i	-0.6	-1	4	-2.6
16	CO[C@@H]1CN(C)C(=O)c2cc(NC(=O)NC3CCCCC3)ccc2OC[C@@H](C)N(C(C)=O)C[C@H]1C	i	-0.8	1	3	1.7
17	Cc1cccc(S(=O)(=O)NC(=O)C2(C)CCN2C(=O)c2sccc2C)c1 (centres undefined)	i	0.0	10	15	-1.2
18	C[C@H](NC(=O)C[C@@H]1CC[C@@H](NC(=O)C2CC2)[C@H](CO)O1)c1ccccc1	i	-3.4	2	4	-2.5
19	Cc1noc(C)c1NC(=O)N(C)C[C@@H]1OCCCC[C@@H](C)Oc2ccc(NS(=O)(=O)c3c(C)noc3C)cc2C(=O)N([C@H](C)CO)C[C@H]1C	i	0.4	0	-2	5.0
20	N/C(=N/O)c1nc(N2CCCC2)nc(N2CCCC2)n1	i	-3.2	-1	5	9.5
21	CO[C@H]1CC[C@@H]2CCN(C)C(=O)[C@H](C)N(C)C(=O)c3cc(C#N)ccc3OC[C@@H]1O2	i	0.8	1	1	-0.5
22	COc1ccc(CN2C[C@H](O)COC[C@@H]3O[C@@H](CC(=O)N4CCc5ccccc5C4)CC[C@H]32)cc1	i	0.0	-2	-9	0.5
23	C[C@@H]1CN([C@@H](C)CO)S(=O)(=O)c2ccc(C#CC3CCCC3)cc2O[C@@H]1CN(C)S(C)(=O)=O	i	4.4	4	-24	2.7
24	COC(=O)[C@]12C[C@H](CC(=O)N3CCC(c4ccccc4)CC3)C(=O)N(Cc3ccc4c(c3)OCO4)C1=C[C@H](COCc1ccccc1)O[C@@H]2C	i	9.0	18	7	-0.6
25	O=S1(=O)c2ccc(Br)cc2N2CC[C@H](C2)N1Cc1ccc(Cl)cc1	i	-8.3	-8	0	-1.9
26	C[C@H]1CN([C@@H](C)CO)C(=O)c2cc(NS(C)(=O)=O)ccc2O[C@@H]1CN(C)C(=O)Nc1ccc(C(F)(F)F)cc1	i	-0.2	2	9	-1.2
27	CN1[C@@H](CO)[C@@H]2c3ccccc3N(C(=O)Nc3cc(F)ccc3F)C[C@@H]21	i	-1.3	3	9	3.5
28	C[C@@H]1CN([C@H](C)CO)C(=O)c2cc(C#CC3CCCCC3)cnc2O[C@@H]1CN(C)C(=O)Cc1ccccn1	i	-5.1	4	-2	-0.9
29	CCOC(=O)N(C)C[C@@H]1OCc2cn(nn2)CCCC(=O)N([C@@H](C)CO)C[C@H]1C	i	4.1&-1.6	0&2	5&3	-1.0&-3.1
30	CCCCOc1ccc(C(=O)NCC(=O)OCCCOC(=O)CNC(=O)c2ccc(OCCCC)cc2)cc1	i	-3.7	6	5	-8.5

Single records (already shown).
C[C@@H]1CN([C@@H](C)CO)S(=O)(=O)c2ccc(C#CC3CCCC3)cc2O[C@@H]1CN(C)S(C)(=O)=O in the list: FGF22 binding: i; rRNA inh HTS RFP: 4.4; rRNA inh HTS: 4; rRNA inh HTS OD600: -24; AF4-AF9 inh: 2.7
Cc1noc(C)c1NC(=O)N(C)C[C@@H]1OCCCC[C@@H](C)Oc2ccc(NS(=O)(=O)c3c(C)noc3C)cc2C(=O)N([C@H](C)CO)C[C@H]1C in the list: FGF22 binding: i; rRNA inh HTS RFP: 0.4; rRNA inh HTS: 0; rRNA inh HTS OD600: -2; AF4-AF9 inh: 5.0

(listing goes on)
nr	compound	FGF22 binding	rRNA inh HTS RFP	rRNA inh HTS	rRNA inh HTS OD600	AF4-AF9 inh
31	C[C@@H]1CCCCO[C@@H](CN(C)Cc2ccc(C(=O)Nc3ccccc3N)cc2)[C@@H](C)CN([C@H](C)CO)C(=O)c2cc(NC(=O)CCC(F)(F)F)ccc2O1	i	-1.7	-1	-3	-1.9
32	C[C@@H]1CCCCO[C@@H](CN(C)Cc2ccc(C(=O)O)cc2)[C@@H](C)CN([C@H](C)CO)C(=O)c2cc(NS(=O)(=O)c3ccc(F)cc3)ccc2O1	i	-3.1	-2	-1	-2.6
33	C[C@H]1CN([C@@H](C)CO)C(=O)c2cc(NC(=O)CCN3CCOCC3)ccc2O[C@@H]1CN(C)Cc1ccccc1	i	-4.5	3	3	1.1
34	CC(C)CC1C(=O)N(Cc2cn(CCC3OCCCO3)nn2)CCS(=O)(=O)N1Cc1ccc(-c2ccncc2)cc1 (centres undefined)	x	1.3	0	-2	2.9
35	CC(C)C[C@H]1COc2cccc(N3CCSCC3)c2S(=O)(=O)N1	i	-1.2	-26	-23	-0.4
36	CCCCNC(=O)c1nc(C2CCN(S(=O)(=O)c3ccccc3C(F)(F)F)CC2)oc1-c1cccc(C(F)(F)F)c1	i	-1.6	-1	4	-1.3
37	CC1(C(=O)NS(=O)(=O)Cc2cccc(Cl)c2)CCN1C(=O)C1(c2ccc(Cl)cc2)CC1 (centres undefined)	i	-3.0	-20	-19	-3.3
38	C[C@H](CO)N1C[C@H](C)[C@H](CN(C)S(=O)(=O)c2cn(C)cn2)Oc2ccc(NC(=O)C3CCCCC3)cc2C1=O	i	-0.1	1	9	0.7
39	CC1(C(=O)NS(=O)(=O)c2cccs2)CCN1C(=O)c1cccc(F)c1 (centres undefined)	i	-7.5	5	15	-1.7
40	CCCC#Cc1cnc2c(c1)C(=O)N([C@@H](C)CO)C[C@@H](C)[C@H](CN(C)Cc1ccc3c(c1)OCO3)O2	i	6.9	-1	0	8.2
41	O=C(Nc1cc(F)ccc1F)N[C@@H]1CC[C@@H](CCn2cc(C3CC3)nn2)O[C@H]1CO	i	0.9	-3	-1	0.1
42	COc1ccc(S(=O)(=O)N(C)C[C@@H]2Oc3ccc(NC(=O)Cc4ccccc4)cc3CC(=O)N([C@@H](C)CO)C[C@@H]2C)cc1	i	0.7	-1	-10	0.0
43	O=C(Nc1ccc2c(c1)OCO2)c1cc(C2CCCCN2C(=O)CCc2ccccc2)on1 (centres undefined)	i	-0.4	-6	-8	-57
44	C[C@@H]1CN([C@@H](C)CO)C(=O)c2cc(NC(=O)CCC(F)(F)F)ccc2O[C@H]1CN(C)CC1CC1	i	-0.4	5	13	-7.1
45	COc1ccc2c3c([nH]c2c1)[C@@H](CO)NCC31CCN(C(=O)C2CCCC2)CC1	i	4.5	-2	8	-1.2
46	CCOC(=O)C1CCN(C(=O)c2[nH]c(C(F)(F)F)nc2-c2ccccc2)CC1	i	3.6	-1	7	-3.4
47	COCC#Cc1cnc2c(c1)C(=O)N([C@H](C)CO)C[C@@H](C)[C@H](CN(C)S(C)(=O)=O)O2	i	0.4	2	-2	-1.7
48	Cc1ccccc1-c1ccccc1[C@H]1[C@@H](C#N)N(C(=O)c2ccccc2)[C@H]1CO	i	-0.6	0	-16	-7.9
49	O=C(NCc1ccc(F)cc1)c1cc(C2CCCCN2C(=O)C2CCCCC2)on1 (centres undefined)	i	11	-4	-25	-2.1
50	O=C1NC[C@@H](CCCCN2C[C@H](Cc3ccc(O)cc3)N(CCC3CCCCC3)C(=O)C2=O)N(CCC2CCCCC2)C1=O	i	31	-16	-49	1.0
51	O=C(NCC1CCCCC1)[C@@H]1[C@@H](CO)[C@@H]2Cn3c(ccc(C4=CCCCC4)c3=O)[C@H]1N2	i	0.2	-5	-7	-1.7
52	C[C@@H]1CN([C@@H](C)CO)C(=O)c2cc(/C=C/c3ccccc3)cnc2O[C@@H]1CN(C)C(=O)c1ccncc1	i	2.3	3	-1	1.2
53	COc1ccc(S(=O)(=O)N(C)C[C@@H]2OCCCC[C@@H](C)Oc3ccc(NC(=O)CCC(F)(F)F)cc3C(=O)N([C@H](C)CO)C[C@@H]2C)cc1	i	0.8	2	1	-5.5
54	N#C[C@@H]1[C@@H](c2ccccc2-c2ccccc2)[C@H](CO)N1C(=O)Cc1cccnc1	i	-3.3	-3	-5	-3.0
55	CCCN(C)C[C@H]1OCCCC[C@@H](C)Oc2ccc(NC(=O)c3ccccc3)cc2C(=O)N([C@H](C)CO)C[C@H]1C	i	2.2	2	2	5.0
56	C[C@@H]1CN([C@@H](C)CO)C(=O)CCCn2nncc2CO[C@H]1CN(C)S(=O)(=O)c1ccccc1F	i	0.5	9	11	-2.6&-0.1
57	C[C@H](CO)N1C[C@H](C)[C@H](CN(C)C(=O)C2CCCCC2)Oc2cc(-c3ccc(F)cc3)ccc2S1(=O)=O	i	6.9	-9	-14	3.1
58	COCC(=O)N(C)C[C@@H]1Oc2ncc(-c3ccccc3F)cc2C(=O)N([C@@H](C)CO)C[C@H]1C	i	-1.9	1	-8	-3.0
59	C[C@H]1CN([C@@H](C)CO)C(=O)c2cc(-c3cccc(C#N)c3)cnc2O[C@@H]1CN(C)C(=O)C1CC1	i	-1.3	10	9	-3.1
60	CCCC(=O)N1CCC2(CC1)CN(C(=O)C1CCCC1)[C@@H](CO)c1[nH]c3cc(OC)ccc3c12	i	0.3	-2	7	0.3

Rewritten in transposed form: 2 of the compounds above.
56. C[C@@H]1CN([C@@H](C)CO)C(=O)CCCn2nncc2CO[C@H]1CN(C)S(=O)(=O)c1ccccc1F
57. C[C@H](CO)N1C[C@H](C)[C@H](CN(C)C(=O)C2CCCCC2)Oc2cc(-c3ccc(F)cc3)ccc2S1(=O)=O

Compound	56	57
FGF22 binding	i	i
rRNA inh HTS RFP	0.5	6.9
rRNA inh HTS	9	-9
rRNA inh HTS OD600	11	-14
AF4-AF9 inh	-2.6&-0.1	3.1

Next section
nr	compound	FGF22 binding	rRNA inh HTS RFP	rRNA inh HTS	rRNA inh HTS OD600	AF4-AF9 inh
61	FC(F)c1nc2nc(Cl)c(Cl)nc2[nH]1	i	-2.5	-10	-13	1.2
62	C[C@H]1CN([C@@H](C)CO)C(=O)Cc2cc(NS(=O)(=O)c3cn(C)cn3)ccc2O[C@H]1CN(C)Cc1ccc(C(=O)Nc2ccccc2N)cc1	i	-0.7	1	7	3.5
63	C[C@H](CO)N1C[C@H](C)[C@@H](CN(C)C(=O)Nc2ccc(F)cc2)Oc2ncc(C3=CCCC3)cc2C1=O	i	1.0	1	3	-0.2
64	Cc1noc(C)c1S(=O)(=O)N(C)C[C@H]1OCCCC[C@H](C)Oc2ccc(NC(=O)c3ccccc3)cc2C(=O)N([C@H](C)CO)C[C@@H]1C	i	3.0	-2	0	-1.5
65	CC12CCC(=O)C=C1CCC1C2C(O)CC2(C)C1CCC2(O)C(O)CO (centres undefined)	i	4.0	8	5	-3.0
66	COCC(=O)Nc1ccc2c(c1)[C@@H]1C[C@H](CC(=O)NCc3ccc(OC)cc3)O[C@H](CO)[C@@H]1O2	i	-2.0	0	-3	0.5

Source: PubChem

Some of the compounds tested; rates above refer to the full screens.
